Compound activity deposited in PubChem by several laboratories.
RGS16-Gao HTS = modulates binding between human RGS16 and Galphao; O15492+P09471; bead-based flow cytometry RGS16-Galphao binding, fluorescence; actives lie on both sides; binding response (% of control), % at 10 µM; hit rate 0.38% among 220,000;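 active = below 25% or above 175%, edge rows of some plates excepted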;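 note: Galphao activated by GDP with aluminum fluoride before binding; 100% = wells without compound and 0% = beads without RGS; some results beyond the cut were filed as inactive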
INS promoter inh = TRM-6 insulin promoter activity inhibition. TRM-6 cells (human fetal islet line), insulin promoter-eGFP reporter, imaging; reporter expression induced with tamoxifen. inhibition, % at 2 µM. hit rate 0.9% among 130,000. AID 1273;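 active = inhibition above the mean plus 3 SD, with well images judged a real hit on visual review, cut at about 60% in these data, passing the limit was not always enough; inconclusive = inhibition over the cutoff but images rejected on review; inactive = inhibition not above the cutoff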
GALR2 agonist = agonists of human galanin receptor 2 (GALR2) | GALR2-expressing cells, agonist activation read-out | AID 803 | hit rate 0.48% among 140,000 | activation, %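 (tested at 5 µM)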;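 active = above mean plus 3 SD of all compounds, about 5% in these data, not always enough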;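 note: 0% = vehicle buffer wells and 100% = reference agonist at full effect; tested in CHO reporter cells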
PKD1 inh = blocks activity of human protein kinase D1. Q15139. PKD1 kinase fluorescence polarization assay. inhibition, %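 (about 10 µM by stock and volumes)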. hit rate 0.056% among 200,000. AID 797;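 active = inhibition of 50% or more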;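 note: controls were vehicle for no effect and a reference inhibitor for full effect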
Target sequence (Q15139 whole entry, looked up): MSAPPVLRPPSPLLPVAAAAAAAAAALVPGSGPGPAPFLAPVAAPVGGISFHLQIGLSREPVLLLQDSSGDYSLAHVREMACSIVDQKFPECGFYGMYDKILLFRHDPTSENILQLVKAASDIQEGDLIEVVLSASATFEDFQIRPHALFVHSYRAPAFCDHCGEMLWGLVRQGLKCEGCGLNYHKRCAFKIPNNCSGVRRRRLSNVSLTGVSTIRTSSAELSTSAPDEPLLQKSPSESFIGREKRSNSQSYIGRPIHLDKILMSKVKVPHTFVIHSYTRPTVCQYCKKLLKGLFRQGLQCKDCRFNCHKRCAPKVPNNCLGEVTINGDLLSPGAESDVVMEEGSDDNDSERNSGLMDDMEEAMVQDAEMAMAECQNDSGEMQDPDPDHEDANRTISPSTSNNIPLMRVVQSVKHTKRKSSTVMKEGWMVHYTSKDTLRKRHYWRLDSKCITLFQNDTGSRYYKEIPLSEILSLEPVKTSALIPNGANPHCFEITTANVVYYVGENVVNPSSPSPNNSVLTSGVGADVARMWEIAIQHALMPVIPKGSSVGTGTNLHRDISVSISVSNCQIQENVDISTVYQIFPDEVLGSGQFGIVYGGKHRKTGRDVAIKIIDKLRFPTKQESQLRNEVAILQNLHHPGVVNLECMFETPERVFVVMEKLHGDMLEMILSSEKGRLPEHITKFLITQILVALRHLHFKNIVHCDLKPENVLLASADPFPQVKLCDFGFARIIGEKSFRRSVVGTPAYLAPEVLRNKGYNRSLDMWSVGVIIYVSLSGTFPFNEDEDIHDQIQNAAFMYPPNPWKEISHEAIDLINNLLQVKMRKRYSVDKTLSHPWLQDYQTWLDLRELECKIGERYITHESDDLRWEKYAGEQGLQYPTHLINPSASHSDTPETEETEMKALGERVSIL
HSV augment = increases HSV replication in cells; HSV replication augmentation in cells, fold increase; maximum fold increase; hit rate 0.005% among 220,000; AID 1956;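 active = peak rise of 1.5-fold or more in the series; inconclusive = self-fluorescent or not available for retest; tested in PC3 cells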;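 note: first round at 10 µM; read as green reporter fluorescence; hits show the peak of a series up to 25 µM; 1 = signal of infected wells without compound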
INS promoter inh cell count = recorded beside INS promoter inh, whose call it bears; normalized cell count, %; measured here: cell count, toxicity; reference of the scale not given here;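 cells exposed to compound for 48 h; stained nuclei by imaging scaled within each plate; lower means fewer cells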
HSV augment primary fold = second read-out of HSV augment, no call of its own (marks repeat the call); fold increase; compound at 10 µM; measured here: primary screen fold increase 10 uM; tested in PC3 cells;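 GFP signal in the first replicate; 1 = infected wells without compound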
* marks the source's active call; other numbers are inactive results; i = inactive; ? = inconclusive; . = not tested or not shown.

SMILES	RGS16-Gao HTS	INS promoter inh	INS promoter inh cell count	GALR2 agonist	PKD1 inh	HSV augment	HSV augment primary fold
Cn1cc(/C=C(\C#N)C(=O)Nc2ncc(Cc3ccc(Cl)cc3)s2)c2ccccc21	95	10	108	-1.5	-6	i	0.85
O=C(O)c1ccc(CSc2nc3ccc(NC(=O)c4ccccc4C(=O)O)cc3s2)cc1	97	-12	76	.	-2	i	0.96
Cc1occc(=O)c1O	105	38	118	-1.5	-1	i	0.74
CCCCn1c(=O)[nH]c(=O)c2c1nc(-c1ccccc1F)n2Cc1ccccc1	103	.	.	.	1	i	0.96
Cc1nc(N2CCCCC2)c2c(C)c(C(=O)Nc3ccccc3C(F)(F)F)sc2n1	103	43	136	.	-4	i	0.91
O=S(=O)(Cc1ccccc1)Nc1ccc(S(=O)(=O)N2CCCC2)cc1	103	.	.	.	.	i	0.99
COC(=O)C1=C(C(=O)OC)C(c2ccccc2O)c2sc(=O)[nH]c2S1 (stereo unspecified)	65	0	82	-0.9	0	i	1.1
Nc1nc(Sc2ccc(C(F)(F)F)cn2)n[nH]1	147	-23	116	0.1	-4	i	0.97
COc1ccccc1NS(=O)(=O)c1cc([N+](=O)[O-])ccc1N/N=C/c1sc(N2CCOCC2)nc1-c1ccccc1	105	.	.	-0.5	-7	?	.
Cc1ccc(C(=O)OCC(=O)NCc2cccs2)cc1C	97	.	.	.	-5	i	0.99
CCOc1cc(C(=O)OCC(=O)c2c(C)[nH]c3ccccc23)ccc1OCC(=O)N1CCOCC1	98	.	.	-2.5	-7	i	0.99
O=C(O)C1CCCCC1C(=O)NCCc1ccccc1 (stereo unspecified)	100	39	85	-0.4	0	i	1.2
Cc1cc(NC(=O)C(=O)NCc2cccc(Cl)c2)no1	106	.	.	.	.	i	1.1
COc1cccc(C(=O)Nc2c[nH]c(=O)[nH]c2=O)c1	98	.	.	.	.	i	0.9
CC(=O)N1CCN(C(=O)CNc2cc(C(F)(F)F)ccc2OCC(F)(F)F)CC1	102	.	.	0.3	-15	i	1
CC(/C=N/NC(=O)Cn1cnc2ccccc21)=C\c1ccccc1	105	7	86	0.2	-8	i	0.89
CN(Cc1ccccc1)C(=O)COc1ccc(Br)cc1Cl	91	.	.	.	.	i	0.96
O=C(/C=C/c1cccs1)Nc1ccc([N+](=O)[O-])cc1	52	-55	103	-0.6	-1	i	1.1
COc1ccc(/C=N/NC(=O)c2ccc3nc[nH]c3c2)cc1	106	.	.	.	.	i	0.96
CCOc1ccc(/C=N/Nc2nc(=O)[nH]nc2C)cc1OC	104	.	.	.	1	i	0.93
N#Cc1cccc(NC(=O)COc2ccc(-n3ccnc3)cc2)c1	103	-85	17	-1.1	3	i	0.97
Cc1nnc2ccc(Oc3ccc(-c4ccccc4)cc3)nn12	100	.	.	-0.6	4	i	0.96
C/C(=N\Nc1ncc(Cl)cc1Cl)c1ccc(OC(F)F)cc1	103	-71	137	-1.0	6	i	0.93
CCc1nc(N2CCOCC2)c(C#N)c2c1CCCC2	142	43	111	0.7	2	.	.
Cc1onc(-c2ccccc2)c1C(=O)Nc1ccnn1C1CCCCC1	101	-5	138	0.8	-2	i	0.98

Reprinted from the part before: 5 entries, then new ones.
SMILES	RGS16-Gao HTS	INS promoter inh	INS promoter inh cell count	GALR2 agonist	PKD1 inh	HSV augment	HSV augment primary fold
N#Cc1cccc(NC(=O)COc2ccc(-n3ccnc3)cc2)c1	103	-85	17	-1.1	3	i	0.97
Cc1nnc2ccc(Oc3ccc(-c4ccccc4)cc3)nn12	100	.	.	-0.6	4	i	0.96
C/C(=N\Nc1ncc(Cl)cc1Cl)c1ccc(OC(F)F)cc1	103	-71	137	-1.0	6	i	0.93
CCc1nc(N2CCOCC2)c(C#N)c2c1CCCC2	142	43	111	0.7	2	.	.
Cc1onc(-c2ccccc2)c1C(=O)Nc1ccnn1C1CCCCC1	101	-5	138	0.8	-2	i	0.98
O=C(NCc1cccnc1)c1csc2c1CCCC2	104	-32	106	0.2	-9	i	0.9
CC(=O)c1c(C)nc(-c2ccccc2)nc1NC(=O)Cc1ccccc1	100	-6	88	.	5	i	0.89
COc1cc(-n2c3nc4ccccc4nc3c3c(=O)n(Cc4ccco4)cnc32)cc(OC)c1OC	.	-71	118	-2.5	6	.	.
CN=Cc1cc(-c2ccccc2)sc1O	95	-38	143	-2.5	-6	i	0.96
CN1CCC(OC(=O)COc2ccc(F)cc2)CC1	100	58	71	.	-7	i	1
Cc1ccc(-c2csc(NC(=O)C3CCN(S(=O)(=O)c4cccs4)CC3)n2)cc1	70	-50	67	-0.2	1	i	0.9
O=C(CCc1nc2cccnc2n1Cc1ccccc1)NCCc1ccc(Cl)cc1	102	-26	126	-1.3	0	i	0.87
CSc1cccc(NC(=S)N(Cc2ccc(C)cc2)Cc2cccnc2)c1	104	-33	130	.	-3	i	0.84
O=C(C/C=N/OCc1ccc(Cl)cc1Cl)c1ccccc1	95	-27	112	-2.2	1	i	0.88
O=C(Nc1ccc(N2CCN(C(=O)c3ccc(Cl)cc3)CC2)cc1)c1cc2ccccc2o1	98	.	.	-2.0	4	i	0.73
COc1ccccc1N1CC(C)(C)C(=O)N(C(=O)c2ccc(Cl)cc2)C1=S	101	.	.	.	.	i	1.1
CCOCCCNc1nc2c(-c3ccccc3)nnn2c2ccccc12	97	17	60	2.9	-7	.	.
O=[N+]([O-])c1ccc(/C=N/Nc2cc(Cl)nc(-c3ccccc3)n2)cc1	99	.	.	-1.3	-6	.	.
CCc1ccccc1NC(=O)c1cnccn1	103	-12	120	-0.8	-1	i	0.95
O=C(CCc1ccc(O)cc1)N/N=C/c1coc2ccccc2c1=O	102	.	.	.	.	i	0.96
CCOC(=O)C1CCCCN1Cc1ccc(C(F)(F)F)cc1 (stereo unspecified)	103	-61	98	-0.6	1	i	0.98
O=C(NN1C(=O)C2C3C=CC([C@H]4CC34)[C@@H]2C1=O)c1ccc(Br)cc1 (stereo partly specified)	96	.	.	.	.	i	0.97
CCCn1c(SCC(=O)Nc2nnc(-c3ccccc3)s2)nnc1-c1ccccn1	104	-21	117	-2.0	-3	i	0.95
Cn1cccc1/C=C1\SC(=O)N(c2ccc(O)cc2)C1=O	99	20	122	0.0	-3	i	1.1
COc1ccc(/C=N/NC(C)(C)C)c(OC)c1	108	18	71	.	-2	i	0.91
O=C(CNC(=O)c1ccc(Cl)cc1)NCC(F)(F)F	109	5	98	-1.8	-2	i	1
CCOc1cc(/C=N/O)ccc1OCc1ccc([N+](=O)[O-])cc1	98	-10	92	1.5	-9	i	1
COc1ccccc1CNC(=O)C1CCN(c2nc3ccccc3o2)CC1	88	.	.	-0.9	5	i	1.1
CCCn1c(N2CCN(C(=O)Nc3ccccc3)CC2)nc2ccccc21	100	.	.	.	-5	i	0.96
CC1=CC=CC2=NC(=O)CC(C)(C(=O)N(CC(=O)NC(C)C)C3CCCC3)N12 (stereo unspecified)	103	20	110	-0.4	-6	i	1

Further records follow:
SMILES	RGS16-Gao HTS	INS promoter inh	INS promoter inh cell count	GALR2 agonist	PKD1 inh	HSV augment	HSV augment primary fold
CCN1C(=O)CSC1=NC12CC3CC(CC(C3)C1)C2	113	-57	62	-3.3	-2	i	1.1
CC(C)N(Cc1ccccc1)C(=O)CCc1ccccc1	98	-12	170	.	-3	i	1.1
CSc1ccccc1C(=O)C1CCCN(C(=O)c2ccc(N3CCOCC3)cc2)C1 (stereo unspecified)	71	.	.	.	0	i	1.1
O=C(NC1CCN(C(=O)NC2CCCCC2)CC1)c1ccco1	81	-12	92	-2.7	1	i	0.92
CCCCc1c(C)nc2ccccc2c1SCCC#N	97	53	139	-0.7	-6	i	0.87
CCc1c(C)nc(SCC(=O)c2cccs2)c(C#N)c1C	95	9	94	-1.9	-3	i	0.73
CCSC1=N/C(=C\c2ccc(OC)cc2)C(=O)N1	94	-153	165	-0.4	7	i	1.1
CN(C)c1ccc(P(=O)(OC2CCCCC2)C(O)c2cccnc2)cc1 (stereo unspecified)	102	.	.	0.5	-1	i	0.99
O=C(CSc1nc2ccccc2n1CCc1ccccc1)NC1CCS(=O)(=O)C1 (stereo unspecified)	100	-13	133	-1.0	-5	i	1
O=C(N/N=C/c1ccc2c(c1)OCO2)/C(=C/c1ccc2c(c1)OCO2)NC(=O)c1ccccc1	104	.	.	-1.9	-6	.	.
O=c1cc2c(nn1Cc1cccc(Cl)c1)-c1ccccc1CC2	108	.	.	-0.5	11	i	1
COc1ccc(C2Sc3nncn3N2Cc2ccc(C#N)cc2)cc1 (stereo unspecified)	100	.	.	-0.1	2	i	1
CCOC(=O)c1ccc(NC(=S)NNC(C)(C)C)cc1	101	.	.	.	.	i	1
CC(=O)c1ccc(NC(=O)C2Cc3ccccc3CN2C(=O)c2ccccc2)cc1 (stereo unspecified)	103	.	.	-0.9	-11	i	1
Cc1ccc(-c2csc(/C(C#N)=C/Nc3ccccc3SC(F)(F)F)n2)c(C)c1	101	50	80	-1.7	5	i	1
O=C1c2ccccc2C(=O)c2c1cccc2N1CCOCC1	90	.	.	-0.5	8	.	.
CCOC(=O)c1c(C)n(C)c2ccc(OCC(O)Cn3nc(C)c(Br)c3C)cc12 (stereo unspecified)	.	10	110	-1.6	-7	i	0.78
COc1cc(C(=O)NC(=S)Nc2ccc3c(c2)C(=O)N(C)C3=O)cc(OC)c1OC	102	.	.	-0.8	11	i	0.92
Cc1ccc(C(=O)Nc2ccc(NC(=O)c3cccs3)cc2)cc1[N+](=O)[O-]	106	.	.	.	-10	i	0.94
COc1ccc(NC(=O)CN2C(=O)/C(=C3\SC(=S)N(C4CCS(=O)(=O)C4)C3=O)c3ccccc32)cc1 (stereo unspecified)	96	.	.	.	.	i	0.89
O=C(/C=C/c1ccc(F)cc1)N1CC[C@@]2(O)CCCC[C@H]2C1	109	.	.	.	.	i	0.93
N#C/C(=C\c1ccc(OC(F)F)cc1)C(=O)N1CCCCC1	95	.	.	.	.	i	1
CC(Sc1ccccc1)C(=O)NN=C1CCN(C)CC1 (stereo unspecified)	93	.	.	.	-4	i	1.1
Cc1cc(C)n2cc(COc3ccc4ccccc4c3)nc2n1	105	8	137	0.8	-1	i	0.78
O=C1/C(=C/c2cccnc2)Oc2cc(OS(=O)(=O)c3ccc(Cl)cc3)ccc21	101	21	105	-2.5	-1	i	1.2

(further entries)
SMILES	RGS16-Gao HTS	INS promoter inh	INS promoter inh cell count	GALR2 agonist	PKD1 inh	HSV augment	HSV augment primary fold
OCCC1CN(Cc2cc(F)ccc2-n2cccn2)CCN1Cc1ccc(F)cc1 (stereo unspecified)	106	.	.	.	.	i	1
CCOCCCNc1c2c(nc3cc(-c4ccc(F)cc4)nn13)CCC2	101	.	.	.	1	i	0.89
CCc1ccccc1N1CC23C=CC(O2)C(C(=O)O)C3C1=O (stereo unspecified)	79	.	.	-1.0	-16	i	1.4
O=C(CSC1=N/C(=C/c2ccc(Cl)c(Cl)c2)C(=O)N1c1ccccc1F)NC1CC1	103	.	.	-0.3	-12	i	0.82
O=C(NCC1CCCO1)C(=O)N/N=C/c1ccc(O)c(Cl)c1 (stereo unspecified)	78	.	.	.	.	i	1.1
O=C(NCC1CCCO1)C1CCN(S(=O)(=O)c2cccnc2)CC1 (stereo unspecified)	68	26	82	-0.3	6	i	1
CCC(C)(C)n1nnnc1C(CC(C)C)N1CCC(C(N)=O)CC1 (stereo unspecified)	101	.	.	-1.2	-10	i	1
CON(C)S(=O)(=O)c1ccc2c(c1)N(Cc1ccc(C)cc1)C(=O)C1CCCN21 (stereo unspecified)	103	35	74	.	0	i	1
CC(C)(C)NC(=O)CSC(=Nc1cccc(F)c1)NC#N	100	-35	130	-3.1	-6	i	1.1
CCN1CCN(C(=O)c2ccc(C(F)(F)F)cc2)CC1	98	.	.	.	4	i	1
COc1ccc(OCC(=O)OCCN2C(=O)c3ccccc3C2=O)cc1	92	-19	107	-1.7	-5	i	0.87
Cc1cc(C(=O)OCC(=O)Nc2ccccc2F)c(C)o1	104	-11	147	-0.5	-5	i	0.96

Profiles, quoted from the list. Values in the order: RGS16-Gao HTS, INS promoter inh, INS promoter inh cell count, GALR2 agonist, PKD1 inh, HSV augment, HSV augment primary fold
O=c1cc2c(nn1Cc1cccc(Cl)c1)-c1ccccc1CC2 is entered as 108, ., ., -0.5, 11, i, 1
N#C/C(=C\c1ccc(OC(F)F)cc1)C(=O)N1CCCCC1 is entered as 95, ., ., ., ., i, 1

Rows were taken by chance; 1.1% or so of the library scored in one or more.
